# Source: PubChem BioAssay
# UUG fidelity = modulators of start codon recognition fidelity in yeast; S. cerevisiae UUG-firefly luciferase reporter, luminescence/redox ratio; activity score, % at 18.7 µM; actives 0.13% (n = 350,000);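 active = replicate mean at a twofold rise or more, about +100% in these data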;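 also: firefly luciferase made from a UUG start codon reports start codon fidelity; reporter light over untreated wells divided by growth signal over untreated wells; some hits fall short of that in this replicate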
# HIV Env fusion = inhibitors of HIV Env-mediated cell fusion. inhibition, % at 12.3 µM. actives 1.1% (n = 360,000). HeLa-JRFL Env/CEM21 cell fusion, luciferase;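 active = mean replicate inhibition score of at least 50 and every replicate individually at or above 50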;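 also: 0% = plate neutral controls and 100% = maraviroc near 300 nM; one replicate is shown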
# Active calls of the source: *; [ ] = another dose, or the depositor's remark. This is a subset; count on the stated rates, not on these rows.
# The line under a structure holds: UUG fidelity | HIV Env fusion
CN1C(=O)c2cc(NC(=O)C3CCCC3)ccc2OC[C@@H]2O[C@H](CC(=O)Nc3ccccc3)CC[C@@H]21
 : 12 | 4[16.7 µM]
C[C@@H]1CN([C@H](C)CO)C(=O)c2cc(NS(=O)(=O)c3ccccc3)ccc2O[C@H]1CN(C)S(=O)(=O)c1ccccc1
 : 10 | -1[16.7 µM]
CC(C)C#Cc1ccc([C@@H]2[C@@H](CO)N(C(=O)C3CCC3)[C@H]2C#N)cc1
 : -4 | -7[16.7 µM]
CN(C)CCCNC(=O)C[C@@H]1CC[C@H]2[C@H](COc3ccc(NC(=O)c4ccc5c(c4)OCO5)cc3C(=O)N2C)O1
 : 2 | -5[16.7 µM]
COc1ccc(-c2cn(CC[C@H]3CC[C@H](NC(=O)Cc4ccccn4)[C@H](CO)O3)nn2)cc1
 : 5 | 5[16.7 µM]
C[C@H]1CN([C@@H](C)CO)C(=O)c2cc(NC(=O)NC3CCCCC3)ccc2O[C@H]1CN(C)C(=O)NC1CCCCC1
 : 1 | 2[16.7 µM]
O=C(Nc1cccc(Cl)c1)N[C@@H]1CC[C@@H](CCNC(=O)C2CCOCC2)O[C@@H]1CO
 : 5 | -10[16.7 µM]
C/C=C/c1cnc2c(c1)C(=O)N([C@H](C)CO)C[C@H](C)[C@H](CN(C)C(=O)Nc1ccc(OC)cc1)O2
 : -1 | -10[16.7 µM]
C[C@H](NC(=O)C[C@@H]1C=C[C@H](NC(=O)C2CCOCC2)[C@@H](CO)O1)c1ccccc1
 : 3 | 5[16.7 µM]
CCCC#Cc1ccc2c(c1)O[C@H](CN(C)C(=O)COC)[C@@H](C)CN([C@H](C)CO)S2(=O)=O
 : 1 | 2[16.7 µM]
O=C(CC1CC1)Nc1ccc2c(c1)[C@H]1C[C@@H](CC(=O)N3CCCCC3)O[C@H](CO)[C@H]1O2
 : 8 | -1[16.7 µM]
C[C@@H]1CN([C@@H](C)CO)C(=O)c2cc(NC(=O)NC3CCCCC3)ccc2O[C@@H](C)CCCCO[C@H]1CN(C)S(=O)(=O)c1ccccc1
 : -9 | -7[16.7 µM]
CCC(=O)N(C)C[C@H]1Oc2cc(C#Cc3ccccc3)ccc2S(=O)(=O)N([C@H](C)CO)C[C@H]1C
 : 2 | 33[16.7 µM]
O=C(Nc1ccccc1)C1=C[C@@H](c2ccc3c(c2)Cc2ccccc2-3)C[C@@H](OCCCCO)O1
 : -4 | -26[16.7 µM]
O=C(Cc1ccccn1)N[C@H]1CC[C@@H](CCNC(=O)c2cc(Cl)cc(Cl)c2)O[C@@H]1CO
 : 15 | -19[16.7 µM]
COc1ccc(NC(=O)Nc2ccc3c(c2)C(=O)N([C@H](C)CO)C[C@H](C)[C@H](CN(C)C(=O)CCCN(C)C)OCCCC[C@H](C)O3)cc1
 : 18 | -15[16.7 µM]
CO[C@@H]1CN(C)C(=O)c2ccc(NC(=O)C3CCCC3)cc2OC[C@H](C)N(CCC(F)(F)F)C[C@H]1C
 : 15 | 9[16.7 µM]
O=C(Nc1ccc(F)cc1)N[C@H]1CC[C@@H](CC(=O)N2CCCCC2)O[C@@H]1CO
 : -17 | -17[16.7 µM]
C[C@@H]1CN([C@H](C)CO)C(=O)Cc2cc(NC(=O)Cn3cnnn3)ccc2O[C@@H]1CN(C)CC1CC1
 : -8 | 8[16.7 µM]
C[C@@H]1CN([C@@H](C)CO)C(=O)c2cc(NC(=O)Nc3cccc4ccccc34)ccc2O[C@@H](C)CCCCO[C@H]1CN(C)Cc1ccc(C(F)(F)F)cc1
 : 15 | -1[16.7 µM]
C[C@@H]1CN([C@H](C)CO)C(=O)c2cc(C3=CCCC3)cnc2O[C@H]1CN(C)Cc1ccc(C(=O)O)cc1
 : 36 | 3[16.7 µM]
Cc1ccc(-c2ccc3c(c2)O[C@@H](CN(C)C(=O)Nc2ccc(C(F)(F)F)cc2)[C@H](C)CN([C@H](C)CO)S3(=O)=O)cc1
 : -9 | 37[16.7 µM]
Cc1ccc(S(=O)(=O)N[C@@H]2CC[C@H](CCNC(=O)CN3CCOCC3)O[C@@H]2CO)cc1
 : -8 | 16[16.7 µM]
CCCC(=O)Nc1ccc2c(c1)OC[C@@H](C)N(C(C)=O)C[C@H](C)[C@@H](OC)CN(C)C2=O
 : 8 | 7[16.7 µM]
C[C@H](CO)N1C[C@H](C)[C@H](CN(C)C(=O)Nc2cccc3ccccc23)OCCCC[C@H](C)Oc2ccc(NC(=O)Cc3ccccc3)cc2C1=O
 : 10 | -52[16.7 µM]
C[C@@H]1CN([C@@H](C)CO)C(=O)c2cc(NC(=O)Nc3ccc(C(F)(F)F)cc3)ccc2O[C@H]1CN(C)C(=O)Nc1cccc2ccccc12
 : -17 | -1[16.7 µM]
O=C(C[C@H]1CC[C@@H](NS(=O)(=O)c2ccc(F)cc2)[C@H](CO)O1)N1CCN(c2ccccc2)CC1
 : 3 | 1[16.7 µM]
C[C@H]1CN([C@@H](C)CO)C(=O)c2cccc(NC(=O)C3CCOCC3)c2O[C@H]1CN(C)C(=O)Nc1ccc(F)cc1
 : -15 | 3[16.7 µM]
C[C@@H]1CN([C@H](C)CO)C(=O)c2cc(-c3ccc(F)cc3)cnc2O[C@@H]1CN(C)CC1CCCC1
 : 20 | 6[16.7 µM]
C[C@@H]1CN([C@@H](C)CO)C(=O)c2cc(NC(=O)CCCN(C)C)ccc2O[C@@H]1CN(C)Cc1ccccc1
 : -18 | 17[16.7 µM]
C[C@@H]1CCCCO[C@@H](CN(C)Cc2ccc(C(F)(F)F)cc2)[C@@H](C)CN([C@H](C)CO)C(=O)c2cc(NS(=O)(=O)c3ccc(F)cc3)ccc2O1
 : 1 | 2[16.7 µM]
Cc1ccc(S(=O)(=O)N(C)C[C@@H]2Oc3ncc(-c4ccc(F)cc4)cc3C(=O)N([C@H](C)CO)C[C@@H]2C)cc1
 : 3 | 12[16.7 µM]
C[C@@H]1CCCCO[C@H](CN(C)C(=O)CCCN(C)C)[C@@H](C)CN([C@@H](C)CO)C(=O)c2cc(NC(=O)Nc3ccccc3)ccc2O1
 : 8 | -23[16.7 µM]
CN(C)C(=O)C[C@@H]1CC[C@@H](NC(=O)C2CCC2)[C@H](CO)O1
 : -3 | -5[16.7 µM]
C[C@@H]1CN([C@H](C)CO)C(=O)Cc2cc(NC(=O)Cc3cn(C)c4ccccc34)ccc2O[C@@H]1CN(C)Cc1ccc(C(F)(F)F)cc1
 : 24 | -106[16.7 µM]
C[C@@H]1CN([C@H](C)CO)C(=O)Cc2cc(NC(=O)Nc3ccc4c(c3)OCO4)ccc2O[C@@H]1CN(C)Cc1ccc2c(c1)OCO2
 : -7 | 1[16.7 µM]
C[C@H](CO)N1C[C@H](C)[C@H](CN(C)C(=O)CC2CC2)Oc2cc(C#CC3CC3)ccc2S1(=O)=O
 : 10 | 19[16.7 µM]
COc1ccccc1S(=O)(=O)N(C)C[C@H]1Oc2ncc(-c3ccc(C)cc3)cc2C(=O)N([C@@H](C)CO)C[C@H]1C
 : 37 | 16[16.7 µM]
CCCC#Cc1ccc2c(c1)O[C@H](CN(C)Cc1cncnc1)[C@@H](C)CN([C@H](C)CO)S2(=O)=O
 : 20 | 24[16.7 µM]
Cc1cc(C(=O)Nc2cccc3c2O[C@H](CN(C)C)[C@H](C)CN([C@H](C)CO)C3=O)n(C)n1
 : -7 | 0[16.7 µM]
C[C@@H]1CN([C@@H](C)CO)C(=O)c2cc(NC(=O)Nc3ccc(C(F)(F)F)cc3)ccc2O[C@@H](C)CCCCO[C@H]1CN(C)Cc1ccc(C(=O)O)cc1
 : 6 | -7[16.7 µM]
CCS(=O)(=O)Nc1ccc2c(c1)C(=O)N(C)C[C@@H](OC)[C@H](C)CN(C(=O)C1CCC1)[C@H](C)CO2
 : -5 | 8[16.7 µM]
C[C@@H]1CN([C@@H](C)CO)C(=O)c2cc(C#C[C@@H](C)O)cnc2O[C@@H]1CN(C)C(=O)c1ccncc1
 : -17 | 5[16.7 µM]
C/C=C/c1ccc2c(c1)O[C@@H](CN(C)CCC)[C@@H](C)CN([C@H](C)CO)S2(=O)=O
 : 85* | -15[16.7 µM]
COc1ccc(S(=O)(=O)N[C@H]2CC[C@@H](CCn3cc(-c4cccc(F)c4)nn3)O[C@H]2CO)cc1
 : 9 | 13[16.7 µM]
COCC(=O)N(C)C[C@H]1Oc2cc(-c3ccc(OC)cc3)ccc2S(=O)(=O)N([C@H](C)CO)C[C@H]1C
 : 12 | -1[16.7 µM]
C[C@@H]1CN([C@@H](C)CO)C(=O)c2cc(NC(=O)c3ccncc3)ccc2O[C@@H]1CN(C)CC1CCCCC1
 : -5 | -4[16.7 µM]
COc1ccc(S(=O)(=O)Nc2cccc3c2O[C@@H](CN(C)C(=O)NC(C)C)[C@H](C)CN([C@H](C)CO)C3=O)cc1
 : 11 | -1[16.7 µM]
C[C@H](CO)N1C[C@H](C)[C@@H](CN(C)Cc2ccccc2)Oc2ccc(NC(=O)Cc3ccccc3)cc2C1=O
 : 1 | 13[16.7 µM]
C[C@@H]1CN([C@@H](C)CO)C(=O)c2cc(NC(=O)Cc3cn(C)c4ccccc34)ccc2O[C@@H]1CN(C)S(=O)(=O)c1ccc(F)cc1
 : -10 | -36[16.7 µM]
COc1ccc(NC(=O)N(C)C[C@@H]2Oc3ccc(NC(=O)NC4CCCCC4)cc3C(=O)N([C@@H](C)CO)C[C@H]2C)cc1
 : -7 | 1[16.7 µM]
COCC(=O)Nc1ccc2c(c1)C(=O)N(C)C[C@H](OC)[C@@H](C)CN(C(=O)CC1CC1)[C@H](C)CO2
 : 9 | 5[16.7 µM]
COc1ccccc1-c1ccc2c(c1)O[C@@H](CN(C)C)[C@@H](C)CN([C@@H](C)CO)S2(=O)=O
 : 19 | 8[16.7 µM]
C[C@H]1CN([C@@H](C)CO)C(=O)c2cc(NC(=O)C3CCCCC3)ccc2O[C@@H]1CN(C)C(=O)Nc1ccc2c(c1)OCO2
 : -5 | 8[16.7 µM]
O=C(C[C@H]1C=C[C@@H](NC(=O)C2CCC2)[C@@H](CO)O1)NCC1CC1
 : -9 | -39[16.7 µM]
C[C@@H]1CCCCO[C@H](CN(C)S(=O)(=O)c2ccc(Cl)cc2)[C@H](C)CN([C@H](C)CO)C(=O)c2cc(NS(=O)(=O)c3cn(C)cn3)ccc2O1
 : 8 | 9[16.7 µM]
COc1ccc(S(=O)(=O)Nc2ccc3c(c2)C(=O)N([C@@H](C)CO)C[C@@H](C)[C@@H](CN(C)S(=O)(=O)c2cccs2)OCCCC[C@H](C)O3)cc1
 : -6 | 3[16.7 µM]
Cc1noc(C)c1S(=O)(=O)Nc1ccc2c(c1)C(=O)N([C@H](C)CO)C[C@H](C)[C@H](CN(C)CC1CC1)OCCCC[C@@H](C)O2
 : -4 | -4[16.7 µM]
C[C@H]1CCCCO[C@@H](CN(C)C(=O)c2ccncc2)[C@@H](C)CN([C@@H](C)CO)C(=O)c2cc(NC(=O)C3CCCCC3)ccc2O1
 : 13 | 9[16.7 µM]
O=C(C[C@@H]1CC[C@@H](NC(=O)C2CC2)[C@@H](CO)O1)Nc1nccs1
 : -20 | 11[16.7 µM]

# (further entries)
# The line under a structure holds: UUG fidelity | HIV Env fusion
C[C@@H]1CN([C@H](C)CO)C(=O)Cc2cc(NC(=O)Cn3cnnn3)ccc2O[C@@H]1CN(C)C(=O)Nc1ccccc1
 : 2 | -6[16.7 µM]
CCCC#Cc1ccc2c(c1)O[C@@H](CN(C)C(=O)NC(C)C)[C@@H](C)CN([C@H](C)CO)S2(=O)=O
 : 8 | -17[16.7 µM]
C[C@@H]1CN([C@@H](C)CO)C(=O)Cc2cc(NC(=O)C3CC3)ccc2O[C@@H]1CN(C)C(=O)Nc1ccc2c(c1)OCO2
 : 1 | 6[16.7 µM]
C[C@H](CO)N1C[C@H](C)[C@@H](CN(C)C(=O)Nc2ccc(C(F)(F)F)cc2)OCCCC[C@H](C)Oc2ccc(NC(=O)c3ccccc3)cc2C1=O
 : -12 | 61*[16.7 µM]
COc1ccc(S(=O)(=O)Nc2ccc3c(c2)C(=O)N(C)C[C@H](OC)[C@@H](C)CN[C@H](C)CO3)cc1
 : -7 | -3[16.7 µM]
CC(C)NC(=O)N(C)C[C@H]1Oc2ncc(C#Cc3ccncc3)cc2C(=O)N([C@@H](C)CO)C[C@@H]1C
 : 3 | 6[16.7 µM]
O=C(N[C@@H]1CC[C@@H](CCNS(=O)(=O)c2ccccc2)O[C@H]1CO)c1cccc(F)c1
 : -3 | 1[16.7 µM]
C[C@@H]1CN([C@H](C)CO)S(=O)(=O)c2ccc(-c3ccc(F)cc3)cc2O[C@H]1CN(C)C
 : -17 | -5[16.7 µM]
C[C@@H]1CCCCO[C@@H](CN(C)Cc2ccc(C(F)(F)F)cc2)[C@@H](C)CN([C@H](C)CO)C(=O)c2cc(NS(=O)(=O)c3cccs3)ccc2O1
 : -9 | -23[16.7 µM]
CCCN(C)C[C@H]1OCCCC[C@H](C)Oc2ccc(NS(=O)(=O)c3ccc(Cl)cc3)cc2C(=O)N([C@@H](C)CO)C[C@H]1C
 : 52 | -37[16.7 µM]
COc1ccc(NC(=O)N(C)C[C@H]2Oc3ncc(C#C[C@@H](C)O)cc3C(=O)N([C@@H](C)CO)C[C@H]2C)cc1
 : -8 | 10[16.7 µM]

# Quoted at random: four records from the list.
# The line under a structure holds: UUG fidelity | HIV Env fusion
C[C@@H]1CN([C@H](C)CO)S(=O)(=O)c2ccc(-c3ccc(F)cc3)cc2O[C@H]1CN(C)C
 : -17 | -5[16.7 µM]
C[C@@H]1CN([C@@H](C)CO)C(=O)Cc2cc(NC(=O)C3CC3)ccc2O[C@@H]1CN(C)C(=O)Nc1ccc2c(c1)OCO2
 : 1 | 6[16.7 µM]
COc1ccc(S(=O)(=O)Nc2ccc3c(c2)C(=O)N(C)C[C@H](OC)[C@@H](C)CN[C@H](C)CO3)cc1
 : -7 | -3[16.7 µM]
CC(C)NC(=O)N(C)C[C@H]1Oc2ncc(C#Cc3ccncc3)cc2C(=O)N([C@@H](C)CO)C[C@@H]1C
 : 3 | 6[16.7 µM]
